Compound activity (PubChem)
CDC25B-CDK2 inh: human CDC25B-CDK2/CyclinA binding inhibition. z-score (concentration not given with the values). HTRF CDC25B-CDK2/CyclinA binding, anti-His/anti-Flag; stronger effect = higher value. AID 1259370. 0.72% of 94,000 active. P30305+P24941;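 also: score is relative to mean and SD of negative controls; strong numbers were not always called active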
HIV TAR-Tat: HIV-1 TAR-Tat binding disruption; HIV-1 TAR RNA, Tat peptide displacement FRET; stronger effect = higher value; z-score (concentration not given with the values); 0.6% of 100,000 active; AID 1259389;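 also: score is relative to mean and SD of negative controls; some compounds called inactive have numbers as strong as hits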
* marks the source's active call; other numbers are inactive results; & = joins results of further samples.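 The calls were made as follows: active = z-score from 3 up in half or more of its runs; inactive = the rest.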

COc1ccc(C2CC(=O)C3=C(C2)Nc2ccccc2NC3c2ccc(C)cc2)cc1 (configuration not stated) was read as HIV TAR-Tat 1.03.
For Cn1c(C(=O)N2CCc3ccccc3C2)cc2sccc21 the results were CDC25B-CDK2 inh -0.91.
`CCOc1ccccc1Nc1nc2ccc(Cl)cc2n2nnnc12` gave CDC25B-CDK2 inh -2.08 and HIV TAR-Tat 2.15.
Screening CCOC(=O)c1c(NC(=O)N2CC=C(c3c[nH]c4ccccc34)CC2)sc2c1CCCC2 returned HIV TAR-Tat -1.96.
Screening COc1cc(C(=O)N(CCC#N)Cc2cccnc2)cc(OC)c1OC returned CDC25B-CDK2 inh -1.73.
Screening O=C(Nc1c(C(=O)NCc2ccccc2)cnn1-c1ccccc1)c1cccc(F)c1 returned CDC25B-CDK2 inh -0.56.
Screening COc1cccc(Cn2cc3c(-c4ccc(OC)c(OC)c4)nnc-3c3ccccc32)c1 returned CDC25B-CDK2 inh -1.27 and HIV TAR-Tat 2.54.
`CCC1CCCCN1S(=O)(=O)c1cc(-c2ccc(=O)[nH]n2)cc(C)c1C` (configuration not stated) gave HIV TAR-Tat 1.45.
`O=S(=O)(NCCc1c[nH]c2ccccc12)c1ccc(-n2cnnn2)cc1` gave CDC25B-CDK2 inh -0.74 and HIV TAR-Tat 0.96.
Cn1c(CSCCOc2ccccc2)nnc1SCC(=O)C(C)(C)C was read as CDC25B-CDK2 inh -1.96.
For Cc1cc(N2CCc3ccccc3C2)nc(-n2nc(C)cc2C)n1 the results were HIV TAR-Tat 0.47.
`CCOC(=O)c1[nH]c(C)c(CN(CC2CCCO2)C(=O)C(C)C)c1C` (configuration not stated) gave HIV TAR-Tat 1.16.
CSc1nsc(SC)c1C(=O)NCCNS(=O)(=O)c1ccc(C)cc1 was read as CDC25B-CDK2 inh -0.18.
Cc1ccc2[nH]cc(S(=O)(=O)c3cc(F)cc(F)c3)c(=O)c2c1 was read as CDC25B-CDK2 inh -0.18 and HIV TAR-Tat -1.29.
For Cn1c2c(c(=O)n(C)c1=O)CN(Cc1ccc3c(c1)OCO3)CN2 the results were CDC25B-CDK2 inh 0.27 and HIV TAR-Tat 1.15.
For COC(=O)C1=C(C)NC2=C(C(=O)CC(C)(C)C2)C1c1ccc(N(C)C)cc1 (configuration not stated) the results were CDC25B-CDK2 inh -0.78 and HIV TAR-Tat 0.95.
`CC1CCCC(N(C)c2c(-c3ccccc3)c(=O)c2=O)C1C` (configuration not stated) gave HIV TAR-Tat 1.79.
O=C(O)c1cccnc1 was read as HIV TAR-Tat 0.65.
O=S(=O)(c1ccc(Cl)cc1)c1cc(O)ccc1O was read as CDC25B-CDK2 inh -2.38 and HIV TAR-Tat -2.28.
Screening COC(=O)c1cnn2c1NCN(Cc1ccccc1Cl)C2 returned CDC25B-CDK2 inh -1.32 and HIV TAR-Tat 2.34.
COc1ccc(-n2c3c(cc(C(=O)NC4CC(C)(C)NC(C)(C)C4)c2=O)C(=O)CC(C)(C)C3)cc1 was read as CDC25B-CDK2 inh -0.77.
O=C(O)C1CC1(C(=O)O)C(=O)O (configuration not stated) was read as CDC25B-CDK2 inh 2.78.
COc1ccc(-c2nc(C#N)c(NCc3ccco3)o2)cc1 was read as CDC25B-CDK2 inh 0.55 and HIV TAR-Tat 0.23.
Screening CS(=O)(=O)c1nc(S(=O)(=O)c2ccc(Cl)cc2)c(N2CCN(CCO)CC2)s1 returned CDC25B-CDK2 inh 0.91 and HIV TAR-Tat 3.22.
Screening COc1ccccc1OCC(O)Cn1nc(C)cc1C (configuration not stated) returned CDC25B-CDK2 inh 1.82 and HIV TAR-Tat 1.82.
For O=C(CSc1ccsc1[N+](=O)[O-])N1CCN(c2ccc(Cl)cc2)CC1 the results were CDC25B-CDK2 inh -2.42 and HIV TAR-Tat 0.5.
Screening CCCCN(CC)S(=O)(=O)c1ccc2c(c1)NC(=O)C(C)CS2 (configuration not stated) returned HIV TAR-Tat 0.9.
Screening O=c1cc(Nc2cccc(C(F)(F)F)c2)nc[nH]1 returned CDC25B-CDK2 inh -1.39.
`Cc1nc2nc(NC(=O)c3ccco3)[nH]n2c(=O)c1Cl` gave CDC25B-CDK2 inh -1.7 and HIV TAR-Tat 0.57.
Cc1cc(F)ccc1S(=O)(=O)Nc1ccc2c(c1)N(S(C)(=O)=O)CCC2 was read as HIV TAR-Tat -0.45.
`CC(C)(C)NC(=S)NN1C2CSC1CS2` gave CDC25B-CDK2 inh -0.8.
Screening CC(C)Oc1ccc(Cn2c(=O)sc3ccccc32)cc1 returned CDC25B-CDK2 inh -0.64 and HIV TAR-Tat 0.63.
CC(c1ccccc1)N1C(=O)c2cccnc2C1=O (configuration not stated) was read as CDC25B-CDK2 inh 3.05 and HIV TAR-Tat 0.21.
`CCc1ccc(S(=O)(=O)N2CCN(c3cc(N(C)C)nc(C)n3)CC2)cc1` gave CDC25B-CDK2 inh -0.56 and HIV TAR-Tat -0.28.
Cc1cc(C2CCCN2S(=O)(=O)c2ccc(Br)cc2)on1 (configuration not stated) was read as HIV TAR-Tat 0.94.
Screening S=c1[nH]ccn2nc(-c3ccccc3)cc12 returned CDC25B-CDK2 inh -2.21 and HIV TAR-Tat 2.98.
`Cc1cc(C)nc(SCC(=O)c2c[nH]c3ccccc23)n1` gave CDC25B-CDK2 inh -0.48 and HIV TAR-Tat -3.41.
Screening COC(=O)c1c(NC(=O)c2cc3ccccc3o2)sc2c1CCC(C)C2 (configuration not stated) returned CDC25B-CDK2 inh -0.59 and HIV TAR-Tat 2.01.
`CCN(c1ccc(OC)cc1)S(=O)(=O)c1ccc2[nH]c3c(c2c1)CCCCC3` gave HIV TAR-Tat 1.46.
For COc1ccc2c(c1OC)C(=O)OC2Nc1cc(C)ccn1 (configuration not stated) the results were CDC25B-CDK2 inh -0.55 and HIV TAR-Tat 0.34.
Screening CCCOc1ccc(Nc2cc(C)nc(C)n2)cc1 returned CDC25B-CDK2 inh -1.18 and HIV TAR-Tat 2.06.
For COc1ccccc1N1C(=O)CC(N2CCN(c3ccccn3)CC2)C1=O (configuration not stated) the results were CDC25B-CDK2 inh -0.75 and HIV TAR-Tat 0.11.
For COC(=O)Cc1nc(NC(=O)c2nc(-c3ccccc3)oc2C)sc1C the results were CDC25B-CDK2 inh -1.59.
Screening Cc1cc(-c2ccc(S(=O)(=O)Nc3cccc(Cl)c3C)s2)on1 returned HIV TAR-Tat 0.1.
`CC1(C)Cc2nc3sc4c(SCC(=O)NCc5ccco5)ncnc4c3cc2CO1` gave HIV TAR-Tat -0.29.
For NC(=O)c1c(N)sc2c1CCCC2 the results were CDC25B-CDK2 inh -1.48 and HIV TAR-Tat -1.93.
For Cc1cc(=O)[nH]c(SCc2cn3c(C)cccc3n2)n1 the results were CDC25B-CDK2 inh -1.67 and HIV TAR-Tat 1.5.
`O=C(/C(=N/O)n1cncn1)c1ccc(Cl)cc1Cl` gave CDC25B-CDK2 inh 0.3.
Screening CCOc1cc(C2CC(=O)Nc3nc(SCC)[nH]c(=O)c32)ccc1O (configuration not stated) returned CDC25B-CDK2 inh -2.37 and HIV TAR-Tat 0.85.
For CCc1nn(CC(=O)NCCCOC(C)C)c(=O)c2cc3cc(F)ccc3n12 the results were CDC25B-CDK2 inh 0.17 and HIV TAR-Tat 1.43.
For O=C(CSc1nc(-c2ccccc2)no1)N1CCc2ccccc21 the results were HIV TAR-Tat 1.37.
Screening N#Cc1c(N2CCOCC2)sc(C(=O)O)c1-c1ccc(Cl)cc1 returned CDC25B-CDK2 inh -0.65.
Screening Cn1ccnc1S/C=C/C(=O)c1ccc(Cl)cc1 returned CDC25B-CDK2 inh -1.02.
CC1CCN(c2ncc3c(n2)CCN(Cc2ccc(Cl)c(F)c2)C3)CC1 was read as HIV TAR-Tat -0.77.
`CCN(c1ccccc1)S(=O)(=O)c1ccc(-c2ccc(=O)[nH]n2)s1` gave HIV TAR-Tat 0.13.
COc1ccccc1-c1nc(SCC(=O)c2ccccc2)n[nH]1 was read as CDC25B-CDK2 inh 0.8 and HIV TAR-Tat 1.28.
Screening Clc1ccc2c(c1)c1cc(Cl)ccc1n2CN1CCCCC1 returned CDC25B-CDK2 inh -2.09.
Screening O=C(CN1C(=O)CSc2ncccc21)NCCCN1CCN(C2CCCCC2)CC1 returned CDC25B-CDK2 inh -1.91 and HIV TAR-Tat 1.23.
Screening O=C(Nc1ccccc1F)c1cnc2sc(N3CCCC3)nn2c1=O returned HIV TAR-Tat -0.93.
`COc1ccc2nc(NC(=O)Cn3c(=O)oc4ccc(C(=O)N5CCCC5)cc43)sc2c1` gave HIV TAR-Tat 1.93.
Screening CSc1ccc(CNCCNC(=O)c2nonc2N)cc1 returned CDC25B-CDK2 inh 0.53 and HIV TAR-Tat 1.09.
`C=CCN(Cc1nc(-c2ccc(C)cc2)no1)C(=O)NCC` gave CDC25B-CDK2 inh -0.43 and HIV TAR-Tat -0.1.
`O=C(NCCN1CCCC1)c1noc2c1CCc1sccc1-2` gave HIV TAR-Tat 1.34.
`Cn1c(-c2ccccc2)nc2c3nsnc3ccc21` gave CDC25B-CDK2 inh -1.11 and HIV TAR-Tat -0.68.
For CC(=O)NC1=NN(C(C)=O)C2(S1)C(=O)N(C(C)=O)c1ccccc12 (configuration not stated) the results were CDC25B-CDK2 inh -0.97.
For Cc1c(NC(=O)Nc2cccc(Br)c2)c(=O)n(-c2ccccc2)n1C the results were CDC25B-CDK2 inh -0.54 and HIV TAR-Tat 0.93.
Screening CCN(CC)S(=O)(=O)c1ccc2c(c1)N(CC(=O)NC1CCCC1)C(=O)CO2 returned CDC25B-CDK2 inh 0.6.
For COc1ccc(COC(=O)C2=C(C)NC3=C(C(=O)CCC3)C2c2ccc(OC)c(O)c2)cc1 (configuration not stated) the results were CDC25B-CDK2 inh -1.38 and HIV TAR-Tat 2.09.
`Cc1cc(C)c(NS(=O)(=O)c2cc(-c3csc(C)n3)ccc2C)c(C)c1` gave HIV TAR-Tat 2.67.
`Cc1ccc(-c2cc(=O)[nH]cn2)cc1` gave CDC25B-CDK2 inh -0.38 and HIV TAR-Tat -1.05.
For O=C(O)c1ccc(CNc2nc3ccc(Cl)cc3n3cnnc23)cc1 the results were CDC25B-CDK2 inh -0.69 and HIV TAR-Tat -0.22.
CC(=O)N1CCc2cc3n[nH]nc3cc21 was read as CDC25B-CDK2 inh -2.25 and HIV TAR-Tat 1.97.
Screening O=C(CSc1nnc2c(n1)-c1cccc3cccc-2c13)Nc1ccc(Br)cn1 returned CDC25B-CDK2 inh 2.25 and HIV TAR-Tat 0.89.
Screening CC(=O)Nc1ccc(C(=O)Nc2ccccc2N)cc1 returned HIV TAR-Tat 2.27.
For O=C(NCCCc1ccco1)C1CCCN(c2nnc(N3CCCC3=O)s2)C1 (configuration not stated) the results were HIV TAR-Tat 1.7.
Screening O=C(Nc1ccc(N2CCOCC2)cc1)c1cncc(Br)c1 returned CDC25B-CDK2 inh -1.69 and HIV TAR-Tat 0.22.
`CC1(C)CC(=O)c2cc(-c3nc(-c4ccc(Oc5ccccc5)cc4)cs3)c(=O)[nH]c2C1` gave CDC25B-CDK2 inh -6.39 and HIV TAR-Tat -0.61.
`COc1ccccc1-n1nnc(-c2nc(-c3cccnc3)no2)c1N` gave HIV TAR-Tat -0.06.
Screening Cn1c2ccccc2c2c(C(=O)N3CCC(N4CCCCC4)CC3)cn(C3CCCCC3)c(=O)c21 returned CDC25B-CDK2 inh -1.18.
Cc1c(C(=O)NCc2ccc3c(c2)OCO3)oc2c1-c1[nH]ncc1CC2 was read as CDC25B-CDK2 inh -1.6 and HIV TAR-Tat -1.52.
For Cc1cccc(-c2noc(C(C)NS(=O)(=O)c3ccc(Br)cc3)n2)c1 (configuration not stated) the results were CDC25B-CDK2 inh 1.03 and HIV TAR-Tat 1.07.
Screening CC(=O)N1c2ccccc2CC1S(=O)(=O)O (configuration not stated) returned CDC25B-CDK2 inh -1.17&-2.1 and HIV TAR-Tat 1.28.
`CCOC(=O)c1cccc(N2CC(O)=C(c3nc4ccccc4s3)C2=N)c1` gave CDC25B-CDK2 inh -1.14 and HIV TAR-Tat 1.9.
Screening CC(C)CNC(=O)CN1c2ccccc2NC2=C(C(=O)CCC2)C1c1ccco1 (configuration not stated) returned HIV TAR-Tat -10.

Entries listed so far that contain a tert-butyl group:
Cn1c(CSCCOc2ccccc2)nnc1SCC(=O)C(C)(C)C was read as CDC25B-CDK2 inh -1.96.
`CC(C)(C)NC(=S)NN1C2CSC1CS2` gave CDC25B-CDK2 inh -0.8.

Remaining list, next part.
For COc1ccc(OC)c(C2CC(=O)NC3=C2C(=O)CCC3)c1 (configuration not stated) the results were CDC25B-CDK2 inh -0.2 and HIV TAR-Tat 0.03.
Screening COC(=O)c1cc(-c2ccc(S(=O)(=O)N3CCC(C)CC3)s2)on1 returned HIV TAR-Tat -0.14.
For O=c1cc(CO)oc(C(Nc2ccccn2)c2ccc(F)cc2)c1O (configuration not stated) the results were CDC25B-CDK2 inh -0.28.
CC1CCCN(c2nn3c(=O)c(C(=O)NCc4ccccn4)cnc3s2)C1 (configuration not stated) was read as HIV TAR-Tat -0.19.
`C=C(C)Cn1c(COc2ccc(OC)cc2)nc2ccccc21` gave CDC25B-CDK2 inh -1.56 and HIV TAR-Tat 0.67.
For O=C(Cn1cc(S(=O)(=O)c2ccccc2)c(=O)c2cc(F)ccc21)Nc1ccccc1 the results were CDC25B-CDK2 inh -3.58.

Retrieved one by one from the entries so far:
Screening CS(=O)(=O)c1nc(S(=O)(=O)c2ccc(Cl)cc2)c(N2CCN(CCO)CC2)s1 returned CDC25B-CDK2 inh 0.91 and HIV TAR-Tat 3.22.
For Cc1cccc(-c2noc(C(C)NS(=O)(=O)c3ccc(Br)cc3)n2)c1 (configuration not stated) the results were CDC25B-CDK2 inh 1.03 and HIV TAR-Tat 1.07.
CC(c1ccccc1)N1C(=O)c2cccnc2C1=O (configuration not stated) was read as CDC25B-CDK2 inh 3.05 and HIV TAR-Tat 0.21.
Screening S=c1[nH]ccn2nc(-c3ccccc3)cc12 returned CDC25B-CDK2 inh -2.21 and HIV TAR-Tat 2.98.
For COc1ccc2c(c1OC)C(=O)OC2Nc1cc(C)ccn1 (configuration not stated) the results were CDC25B-CDK2 inh -0.55 and HIV TAR-Tat 0.34.

Not a hit list; 0.9% or so of the library scored in one or more.
